Arbovirus inh = antivirals against arbovirus infection, primary screen, cell-based, full library, 10K replicate subset | arbovirus infection cell-based antiviral screen | inhibition, % at 10 µM | 200,000 tested, 0.37% active | AID 1251, 2008;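 active = inhibition from about 30%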;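 note: bluetongue infection of BSR cells; cell survival read as ATP light after 72 h; 0% = infected wells without compound and 100% = uninfected wells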
Mtb betalactam = beta-lactam sensitization of Mtb H37Rv, H37Rv; M. tuberculosis H37Rv growth with meropenem, percent inhibition; hits of this screen are not shown here; inhibition, % at 25 µM; 330,000 tested, 0.27% active;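 active = about 74% or more and at least 40 points above the plate without the antibiotic, then above 30% in a dose series; inconclusive = first-round hits that could not be retested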;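 note: growth measured after seven days incubation then overnight dye step; 0% = bacteria only wells and 100% = bacteria with antibiotic; twin plates without the antibiotic show which effects depend on it; some results filed as inactive read as strong as hits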
YopH PTP inh = YopH tyrosine phosphatase inhibitors, primary screen, biochemical, fluorescence Ex485/Em525; YopH tyrosine phosphatase [Yersinia enterocolitica]; inhibition, %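 (about 10 µM by stock and volumes)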; 140,000 tested, 0.16% active; AID 898, 2007;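 active = inhibition of 50% or more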;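 note: controls were vehicle for no effect and minimum signal wells for full effect; inactives centre near -20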
RecA splice inh = Mtb RecA intein splicing inhibitors, primary screen, biochemical, fluorescence, HTS; inhibition, %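 (about 9 µM by stock and volumes)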; Protein RecA (Mycobacterium tuberculosis (strain ATCC 25618 / H37Rv)), P9WHJ3; 290,000 tested, 0.75% active; AID 2221, 2009; cell-free RecA intein splicing; in the data active = inhibition above about 30%; inconclusive = no clear call, values can overlap the other calls;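 note: 0% = vehicle wells and 100% = reference inhibitor control wells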
Target sequence (P9WHJ3 whole entry, looked up, canonical isoform): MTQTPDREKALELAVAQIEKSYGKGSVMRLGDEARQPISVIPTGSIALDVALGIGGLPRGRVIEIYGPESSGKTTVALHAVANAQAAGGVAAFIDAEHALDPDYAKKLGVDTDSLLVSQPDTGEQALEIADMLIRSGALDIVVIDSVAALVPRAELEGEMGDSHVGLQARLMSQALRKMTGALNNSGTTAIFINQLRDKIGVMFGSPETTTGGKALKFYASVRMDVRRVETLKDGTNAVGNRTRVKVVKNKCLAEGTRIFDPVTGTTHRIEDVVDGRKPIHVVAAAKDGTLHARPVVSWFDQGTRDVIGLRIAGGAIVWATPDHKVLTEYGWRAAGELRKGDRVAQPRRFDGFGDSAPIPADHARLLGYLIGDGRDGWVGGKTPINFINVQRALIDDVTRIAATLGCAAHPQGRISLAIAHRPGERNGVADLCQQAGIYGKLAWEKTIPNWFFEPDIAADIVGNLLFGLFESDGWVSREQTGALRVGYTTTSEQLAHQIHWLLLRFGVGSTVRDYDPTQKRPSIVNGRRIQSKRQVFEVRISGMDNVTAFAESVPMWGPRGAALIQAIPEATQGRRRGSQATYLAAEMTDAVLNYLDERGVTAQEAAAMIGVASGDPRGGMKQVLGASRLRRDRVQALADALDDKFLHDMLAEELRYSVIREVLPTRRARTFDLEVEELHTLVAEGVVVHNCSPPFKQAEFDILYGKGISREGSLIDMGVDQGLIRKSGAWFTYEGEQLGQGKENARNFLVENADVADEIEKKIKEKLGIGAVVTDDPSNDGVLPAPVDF
Mtb H37Rv = M. tuberculosis H37Rv growth inhibitors, H37Rv strain (AID 1626); M. tuberculosis H37Rv growth inhibition; higher % means a stronger effect; inhibition, % at 10 µM, or IC50 in µM where a hit was titrated; 220,000 tested, 0.95% active;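 active = confirmed in a dose series; inconclusive = inhibition above 80% but not taken into the dose series; inactive = below 80% or under 30% at every dose of the series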;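 note: bacteria incubated seven days before Alamar blue readout; 0% = bacteria only wells and 100% = bacteria with antibiotic wells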
Arbovirus inh repeat = recorded beside Arbovirus inh, whose call it bears; inhibition, %; measured here: 10K subset replicate screen; many hits read low in the repeat;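 first of two repeat runs on a subset; 0% = infected and 100% = uninfected wells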
* hit, by the source's call; ? = inconclusive; . = no result given. Not all compounds are listed. The share of hits here may be higher or lower than overall.

Preview, 2 compounds:
SMILES | Arbovirus inh | Mtb betalactam | YopH PTP inh | RecA splice inh | Mtb H37Rv | others
COc1ccc(N(CC(=O)N2CCN(C)CC2)S(=O)(=O)c2ccccc2)cc1OC | -1 | 0 | -34 | 6.3 | 3% | Arbovirus inh repeat=2
CC1(C)COC2(OC1)C(=O)Nc1ccccc12 | -12 | -7 | . | 17 | -3%

The whole of this part, repeating the preview:
SMILES | Arbovirus inh | Mtb betalactam | YopH PTP inh | RecA splice inh | Mtb H37Rv | others
COc1ccc(N(CC(=O)N2CCN(C)CC2)S(=O)(=O)c2ccccc2)cc1OC | -1 | 0 | -34 | 6.3 | 3% | Arbovirus inh repeat=2
CC1(C)COC2(OC1)C(=O)Nc1ccccc12 | -12 | -7 | . | 17 | -3%
COc1ccc2cc(-c3ccon3)ccc2c1 | . | 0 | . | 3.3 | .
O=C(Nc1cccc2c1CCCC2)C1CCN(c2nnnn2-c2ccccc2)CC1 | -1 | -13 | 20 | 1.0 | -2%
Cc1cc(-c2nnc(CCC(=O)N(CC3CC3)CC3CCCO3)o2)no1 (stereo not drawn) | 1 | 5 | . | 0.0 | 0%
Nc1nonc1-c1nc2ccccc2n1CC(=O)N/N=C/c1ccc(-c2cccc(C(=O)O)c2)o1 | 20 | . | . | -0.3 | 3%
CN(c1c[nH]c(=O)[nH]c1=O)C1CCCCC1 | 3 | 1 | . | -0.6 | 3%
COc1ccc(C)cc1NC(=O)C(Sc1nnc(-c2cccs2)o1)c1ccccc1 (stereo not drawn) | 3 | -8 | -28 | 4.7 | -3%
CC(C)(C)c1ccc(S(=O)(=O)NCc2ccccn2)cc1 | . | -8 | . | -1.9 | .
CCOC(=O)C(C)n1cnc2c(nnn2-c2cccc(Cl)c2)c1=O (stereo not drawn) | 8 | 3 | -46 | -0.3 | 2% | Arbovirus inh repeat=-2
Nc1ccc2nc(CCCO)[nH]c2c1 | . | -8 | . | 1.4 | 0%
COc1ccc(C(C)=O)cc1Cn1nc(C)c([N+](=O)[O-])c1C | 4 | -4 | . | -2.2 | -3%
CNc1nc(-c2ccc3c(c2)CCN3C(=O)c2ccccc2F)cs1 | -21 | . | . | 1.1 | 0%
COc1ccccc1N(C)S(=O)(=O)c1ccc(C(=O)NC(C)(C)C)cc1 | 0 | -16 | -7 | -0.7 | .
CCOc1ccc(CNC(=O)c2ccc(NC(=O)C3=CSCCO3)cc2)cc1 | . | 8 | . | -0.7 | .
CC(C)Cn1c(N)c(C(=O)COC(=O)CCc2nc3ccccc3s2)c(=O)n(C)c1=O | 1 | 13 | . | 0.5 | 2%
O=C(c1cccc(Cl)c1)N1CCC(N2CCC(C(=O)N3CCCC3)CC2)CC1 | . | 2 | . | 1.7 | .
Cc1c(N=Nc2ccc(O)cc2)c(=O)n(-c2ccccc2)n1C | -7 | 4 | . | -1.9 | 4%
O=C(COC(=O)/C=C/c1ccc(C(F)(F)F)cc1)NC1CC1 | . | -1 | . | 0.3 | .
Cc1cc(O)ccc1NC(=O)c1ccccc1 | -8 | 1 | -6 | 1.7 | 0%
COc1cc(C(=O)NCCc2ccc(S(N)(=O)=O)cc2)cc(OC)c1OC | 2 | -5 | -4 | 3.1 | -14%
CCN(CC)S(=O)(=O)c1cc(OC)c(C)cc1C | 2 | -2 | . | -5.8 | -2%
CSc1nc(NCc2ccco2)c2ccccc2n1 | 6 | 70 | -24 | 0.2 | ?
Cc1cc(C)c(C#N)c(Sc2nnnn2-c2ccccc2)n1 | 9 | -3 | -39 | -0.5 | 9%
CC(C)(C)NC(=O)c1oc2ccccc2c1COc1ccccc1 | 0 | 15 | 17 | 3.4 | 13%
(more compounds)
SMILES | Arbovirus inh | Mtb betalactam | YopH PTP inh | RecA splice inh | Mtb H37Rv | others
CCCCNS(=O)(=O)c1ccc(OC)c(Cl)c1Cl | 2 | -3 | 0 | 1.5 | -11%
CC(C)(C)NC(=O)C(c1ccncc1)N(C(=O)C1CSC(=O)C1)c1ccccc1 (stereo not drawn) | 3 | 3 | . | 0.7 | 1%
COc1ccc(NCC(=O)N/N=C/C2CCCCC2)cc1 | . | 48 | . | -3.7 | -6%
N#Cc1c(N2C(=O)Nc3ccccc3N2O)sc2c1CCCC2 | 26 | -3 | . | -0.3 | 2%
CC(C)OCCCNC(=O)c1cn(C)c2ccc(S(=O)(=O)N3CCCC3)cc2c1=O | . | -6 | . | -2.5 | .
O=C(c1cccc(S(=O)(=O)N2CCOCC2)c1)N1CCN(c2ccc(F)cc2)CC1 | 2 | 3 | -15 | -3.5 | -1%
CCC(Sc1nc2ccncc2[nH]1)C(=O)Nc1ccc(C)c(Cl)c1 (stereo not drawn) | . | 11 | . | 3.4 | .
O=C(COC(=O)CCCN=C1NS(=O)(=O)c2ccccc21)NNC(=O)c1ccccc1 | . | -3 | . | -5.1 | .
Cc1n(CC(O)COC2CCCCC2)c2ccccc2[n+]1C (stereo not drawn) | 4 | -4 | -16 | 2.6 | 9%
COc1ccc(-c2cc3nc(C)c(CCC(=O)N4CCN(c5ccccn5)CC4)c(C)n3n2)c(OC)c1 | -11 | 0 | . | 1.4 | 2%
COc1cccc(/C=C/C(=O)OCC(=O)Nc2ccc(Cl)c(S(=O)(=O)N(C)C)c2)c1OC | -1 | 20 | . | 1.5 | -5%
Cn1c(=O)cc(OCC(=O)NC2CCCCC2)c2ccccc21 | 5 | 9 | 10 | -1.1 | -9%
CC1(c2ccccc2)NC(=O)N(CC(=O)NC(=O)NC2CCCC2)C1=O (stereo not drawn) | 0 | 19 | -3 | -0.3 | -11%
CCC(Cc1ccccc1)NC(=O)CN1C(=O)CSc2ncccc21 (stereo not drawn) | 3 | -1 | -12 | . | 2% | Arbovirus inh repeat=7
CC(C)C(=O)Nc1cccc(NC(=S)NC(=O)c2cccs2)c1 | . | -4 | . | -0.4 | .
O=C(COc1ccc(Cl)cc1)Nc1ccc2oc(=O)ccc2c1 | . | 16 | . | 10 | .
CC(=O)Nc1nc(C)c(-c2nc3ccc([N+](=O)[O-])cc3[nH]2)s1 | . | 0 | . | 2.1 | .
Nc1nc(Sc2c([N+](=O)[O-])cc(C(F)(F)F)cc2[N+](=O)[O-])n[nH]1 | . | -2 | . | 29 | -4%
CCc1cccc2c(=O)c(C(=O)N3CCCCCC3)c[nH]c12 | 3 | 94 | -56 | -3.7 | 3%
COc1ccc(CNC(=O)C2CC(=O)N(C3CCCCC3)C2)cc1 (stereo not drawn) | . | -3 | . | -1.1 | .
Cc1cc(C)c(S(C)(=O)=O)c(Oc2ccc(C(C)(C)C)cc2)n1 | 7 | -3 | -15 | 3.6 | .
Cc1[nH][nH]c(=O)c1C=NCc1cccc(C(F)(F)F)c1 | -1 | 6 | . | 1.2 | -6%
COC(=O)c1oc2nc(C)cc(C)c2c1N | 2 | 2 | -30 | 0.7 | -3%
O=c1nc2ccccn2c2ccc(S(=O)(=O)N3CCCCC3)cc12 | . | 0 | . | 0.3 | .
NC(=O)NC(c1ccccc1)c1ccccc1F (stereo not drawn) | 12 | -10 | 29 | 0.7 | -2%

Of the compounds above, 6 contain a Cl atom.
SMILES | Arbovirus inh | Mtb betalactam | YopH PTP inh | RecA splice inh | Mtb H37Rv | others
CCOC(=O)C(C)n1cnc2c(nnn2-c2cccc(Cl)c2)c1=O (stereo not drawn) | 8 | 3 | -46 | -0.3 | 2% | Arbovirus inh repeat=-2
O=C(c1cccc(Cl)c1)N1CCC(N2CCC(C(=O)N3CCCC3)CC2)CC1 | . | 2 | . | 1.7 | .
CCCCNS(=O)(=O)c1ccc(OC)c(Cl)c1Cl | 2 | -3 | 0 | 1.5 | -11%
CCC(Sc1nc2ccncc2[nH]1)C(=O)Nc1ccc(C)c(Cl)c1 (stereo not drawn) | . | 11 | . | 3.4 | .
COc1cccc(/C=C/C(=O)OCC(=O)Nc2ccc(Cl)c(S(=O)(=O)N(C)C)c2)c1OC | -1 | 20 | . | 1.5 | -5%
O=C(COc1ccc(Cl)cc1)Nc1ccc2oc(=O)ccc2c1 | . | 16 | . | 10 | .

Carrying on:
SMILES | Arbovirus inh | Mtb betalactam | YopH PTP inh | RecA splice inh | Mtb H37Rv | others
Cc1cc(C)cc(NC(=S)Nc2cccc3ccccc23)c1 | . | 32 | . | 3.7 | .
Cc1ccccc1NS(=O)(=O)c1ccc(C(=O)NCC2CCCO2)cc1 (stereo not drawn) | . | -19 | . | 0.1 | .
COc1ccc(/C=N/Nc2ncnc(Cl)c2N)cc1OC | -4 | -3 | -11 | -2.3 | 6%
CC(C)NC(=O)Cn1c(SCC(=O)N2CCCc3ccccc32)nc2ccccc21 | 5 | -15 | -37 | 0.5 | -1%
COc1ccc(-n2nc(C(=O)NCC(=O)N3CCCC(C)C3)c3ccccc3c2=O)cc1 (stereo not drawn) | . | 0 | . | -0.7 | .
Cc1cc2occ(CC(=O)N(C)CC(=O)Nc3ccc(F)cc3)c2cc1C | . | 1 | . | 3.0 | .
Cc1nnc(N(Cc2ccco2)C(=O)c2cccc(C#N)c2)s1 | 5 | -4 | -24 | -0.5 | 1% | Arbovirus inh repeat=-2
c1cncc(CNC2=NCCCCC2)c1 | 9 | -12 | -4 | -0.6 | -2%
COC(=O)c1ccc(OCc2nc(N)nc(N3CCOCC3)n2)cc1 | 5 | 13 | 0 | -0.1 | -12%
COc1ccc(Br)cc1C(=O)Nc1ccc(O)cc1 | -16 | -5 | 6 | 7.0 | 1%
CCOc1ccc(N(Cc2ccccc2F)C2=NC3CS(=O)(=O)CC3S2)cc1 (stereo not drawn) | -13 | 1 | . | 18 | 8%
CCc1ccccc1NC(=O)CC1CS(=O)(=O)CC1CC(=O)Nc1ccccc1CC (stereo not drawn) | 0 | -4 | -31 | -0.2 | -3%
Cc1ccc(NC(=O)c2snc3ccc(Cl)cc23)cc1C | -10 | -7 | -28 | -8.5 | 7%
CCOc1ncccc1C(=O)NCc1cccc(OC)c1 | 3 | 6 | -41 | -3.1 | 6%
N=C1SCC(=O)N1c1ccccc1Cl | . | 0 | . | -0.4 | .
Cc1cc(NC(=O)c2cccc([N+](=O)[O-])c2)no1 | . | 2 | . | -0.8 | .
CCOC(=O)c1c(-c2cccc(N)c2)cn2ccccc12 | 4 | 42 | . | -2.2 | -2%
CCN(CC)CCn1c2c(c(SCC(=O)Nc3cc(OC)cc(OC)c3)nc1=O)CCC2 | . | -12 | . | -1.1 | .
CC(=O)N(Cc1ccccc1)c1ccc(C(=O)O)cc1 | 12 | -14 | -38 | -0.7 | -2%
COc1cc(CC(=O)O)c([N+](=O)[O-])cc1OC | . | -9 | . | -4.6 | -4%
CCOC(=O)c1nnc(-c2ccccc2)nc1Sc1ccccc1Cl | -36 | 95 | -8 | 40* | -1%
Cc1cc(C)nc(Nc2ccc(O)cc2)n1 | . | -7 | . | -4.2 | .
Cc1ccc(NC(=O)C(=O)N2CCCC2)cc1Cl | -6 | 6 | -29 | -4.0 | 1%
COC(=O)c1ccc(C2/C(=C(\O)c3ccc(OC)c(C)c3)C(=O)C(=O)N2c2cc(C)on2)cc1 (stereo not drawn) | 1 | -11 | -28 | -0.4 | -11%
Cc1ccc(NC(=O)CSCC(=O)Nc2nnc(C3CC3)s2)cc1 | . | -7 | . | -1.1 | .
(continued)
SMILES | Arbovirus inh | Mtb betalactam | YopH PTP inh | RecA splice inh | Mtb H37Rv | others
COc1ccc(CCNC(=O)COc2ccc(S(=O)(=O)NC(C)C)cc2)cc1OC | 7 | -8 | . | 0.4 | 1%
CC(c1ccco1)N(C(=O)C12CC3CC(CC(C3)C1)C2)c1ccccn1 (stereo not drawn) | 9 | 2 | -13 | 1.7 | 9%
Cc1cc(C)c(C(=O)CSc2nnc(-c3ccccc3Br)o2)cc1C | 7 | . | 15 | 2.0 | -1%
CC1(C)CC(=O)C(N=Nc2cccc(F)c2C#N)=C(O)C1 | . | -2 | . | -1.7 | 1%
Cc1cccc2c1-c1sc(C(=O)Nc3nccs3)cc1CO2 | 82* | 5 | -12 | -2.8 | 12%
CC1=NCCN1S(=O)(=O)c1ccccc1[N+](=O)[O-] | 3 | -3 | . | 1.4 | -1%
COC(=O)c1c(NC(=O)COC(=O)[C@@H](NS(=O)(=O)c2ccccc2)C(C)C)sc2c1CCC2 | -7 | -1 | -24 | 0.0 | 5%
CC(=O)c1cccc(NC(=S)NCc2ccco2)c1 | -6 | -6 | . | 0.8 | -7%
CN(C)CCN1C(=O)C(=O)/C(=C(/O)c2ccc(F)cc2)C1c1ccccc1F (stereo not drawn) | 1 | 13 | -15 | -2.1 | -1%
CCNC(=O)C1CC(=O)N(Cc2ccc3c(c2)OCO3)C(=Nc2ccc(OCC)cc2)S1 (stereo not drawn) | 2 | -5 | -3 | -2.8 | .
CCCN(CC(=O)Nc1ccc(Cl)cc1Cl)C(=O)/C=C/c1cccc([N+](=O)[O-])c1 | -9 | 4 | 3 | 0.8 | -2%
